LANA-H2B inh – blocks KSHV LANA binding to histone H2A/H2B; 320,000 tested, 0.6% active; AID 2629; inhibition, % (concentration not given with the values); cell-free LANA-H2A/H2B peptide, fluorescence polarization; Q9QR71; in the data active = inhibition mostly above about 10%, no sharp cut-off; inactive = mostly below about 6.7%;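 note: stock transfer was 7.5 nL into about 10 µL; 0% = median of vehicle wells and 100% = median of positive control wells; one replicate is shown; the record names a cut of 25% in any replicate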
B2AR ag – activates human beta-2 adrenergic receptor causing internalization. P07550. Am2.2-beta2AR cells, FAP receptor internalization, flow cytometry; reference of the scale not given here. response, % (no concentration beside the values). 340,000 tested, 0.43% active;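 active = response above a set limit, near 3 SD of response in nonfluorescent compounds, cut at about 42% in these data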;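 note: stock transfer was 100 nL into about 11 µL; a reference agonist was the positive control; negative values mostly stem from fluorescent compounds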
Calb FLC – C. albicans growth modulation with fluconazole. C. albicans CaCi-2 (fluconazole-resistant clinical isolate) + fluconazole, Alamar Blue growth, 48 h. growth inhibition, % (concentration not given with the values). 300,000 tested, 0.57% active;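 active = most replicates above 75%; inconclusive = exactly half above 75%; inactive = most below 75%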;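 note: all wells also contain fluconazole at 8 µg/ml as a sub-toxic cotreatment; 0% = median of DMSO wells and 100% = median of geldanamycin control wells; wells of about 8 µL received 7.5 nL stock; the first replicate is given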
Vif A3G – inhibitors of Vif binding to APOBEC3G peptide, primary screen, biochemical, TR-FRET, GST-Vif 1-94, biotin-A3G peptide, dose response retest (AID 1117319) | TR-FRET GST-Vif / biotin-A3G peptide binding; higher % means a stronger effect; test concentration not given here; strong numbers were not always called active | one-dose inhibition, %; IC50 in µM for titrated hits | 260,000 tested, 0.57% active;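 active = above the screen mean plus three standard deviations and confirmed in dose response; inconclusive = results disagree or hit not tested in dose response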;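 note: Vif residues 1-94 fused to GST binding biotinylated APOBEC3G peptide 110-148; 0% = full assay without inhibitor and 100% = GST in place of GST-Vif; retest series ran down from 100 µM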
RanGTP-Imp inh – disruptors of Ran-importin-beta complex formation – biochemical, FRET, CFP-Ran, YFP-importin-beta, homogeneous, primary screen | inhibition, % (test concentration not listed) | cell-free CFP-Ran/YFP-importin-beta FRET ratio | 300,000 tested, 1.1% active;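 active = most replicates above 15%; inconclusive = exactly half above 15%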;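 note: 0% = DMSO wells and 100% = Ran loaded with GDP instead of GTP; wells of about 40 µL received 100 nL stock; the first replicate is given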
ALR H2O2 inh – inhibitors of human sulfhydryl oxidase ALR. 290,000 tested, 3.8% active. purified ALR, DTT oxidation, H2O2 HRP-luminol luminescence. P55789. AID 485317. inhibition, % (concentration not given with the values);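 active = mean and each replicate at 75% or more; inconclusive = only one of the two met; inactive = neither met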;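 note: stock transfer was 7.5 nL into about 7.5 µL; 0% = neutral wells and 100% = wells with inactivated enzyme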
Target sequence (P55789 whole entry, looked up): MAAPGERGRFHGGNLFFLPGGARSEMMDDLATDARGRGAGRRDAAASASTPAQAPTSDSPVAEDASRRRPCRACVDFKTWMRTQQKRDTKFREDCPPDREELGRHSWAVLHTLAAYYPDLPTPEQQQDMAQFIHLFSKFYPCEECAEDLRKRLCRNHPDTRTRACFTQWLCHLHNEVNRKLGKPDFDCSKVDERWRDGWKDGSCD
HNF4A DNA FP – change in binding of human HNF4 alpha to DNA; P41235; HNF4a-FITC DNA binding, fluorescence polarization, 1 h; activity change, % at 10 µM; 360,000 tested, 0.3% active; AID 1224865; in the data active = activity change above about 30%, passing the limit was not always enough;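 note: controls were the assay level and a saturating level of protein; the project sought stronger binding though the title names inhibitors; some compounds called inactive have numbers as strong as hits; positive values seem to mean higher polarization but the record does not say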
Target sequence (P41235 whole entry, looked up): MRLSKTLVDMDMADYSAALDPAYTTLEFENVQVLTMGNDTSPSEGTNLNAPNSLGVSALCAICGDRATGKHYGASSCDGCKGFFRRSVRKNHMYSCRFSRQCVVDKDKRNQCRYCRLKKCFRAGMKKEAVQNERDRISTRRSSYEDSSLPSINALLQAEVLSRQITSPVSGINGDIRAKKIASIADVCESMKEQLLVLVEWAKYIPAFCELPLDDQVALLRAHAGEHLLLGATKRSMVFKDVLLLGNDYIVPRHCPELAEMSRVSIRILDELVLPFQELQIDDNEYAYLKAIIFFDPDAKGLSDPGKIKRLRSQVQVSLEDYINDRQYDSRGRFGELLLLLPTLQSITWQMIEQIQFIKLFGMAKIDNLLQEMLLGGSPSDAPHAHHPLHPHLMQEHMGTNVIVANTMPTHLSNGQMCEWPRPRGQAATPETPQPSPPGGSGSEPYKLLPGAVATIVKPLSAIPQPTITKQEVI
* hit, by the source's call; u = inconclusive; x = no result given.

The first 6 entries (preview)
SMILES	LANA-H2B inh	B2AR ag	Calb FLC	Vif A3G	RanGTP-Imp inh	ALR H2O2 inh	HNF4A DNA FP
Cc1sc2nc(CSC(C)C(=O)Nc3cc(S(C)(=O)=O)ccc3Cl)[nH]c(=O)c2c1C (stereo not given)	1.1	27	11	9%	-6.5	98*	13
Cc1cc(F)ccc1NC(=O)CCCN(C)S(=O)(=O)c1ccc(F)cc1	-1.1	8	-4	x	u	-2	3.4
CC(C)(C)C1CCC(=O)N(CCSc2ccccc2)CC1 (stereo not given)	1.4	1	-2	x	4.9	-20	4.3
COc1cccc(C2C(C(=O)c3cccs3)=C(O)C(=O)N2CCN2CCOCC2)c1OC (stereo not given)	x	-4	14	-2%	1.6	x	0.1
COC(=O)c1ccc(C2/C(=C(/O)c3ccc(Cl)cc3)C(=O)C(=O)N2C2CCS(=O)(=O)C2)cc1 (stereo not given)	-1.3	-2	x	0%	-1.2	0	1.7
CCOc1ccc(N(CC(=O)N2CCN(c3ccccc3OC)CC2)S(=O)(=O)c2ccc(F)cc2)cc1	-2.2	-7	48	4%	1.4	-10	4.4

Results, repeating the preview:
SMILES	LANA-H2B inh	B2AR ag	Calb FLC	Vif A3G	RanGTP-Imp inh	ALR H2O2 inh	HNF4A DNA FP
Cc1sc2nc(CSC(C)C(=O)Nc3cc(S(C)(=O)=O)ccc3Cl)[nH]c(=O)c2c1C (stereo not given)	1.1	27	11	9%	-6.5	98*	13
Cc1cc(F)ccc1NC(=O)CCCN(C)S(=O)(=O)c1ccc(F)cc1	-1.1	8	-4	x	u	-2	3.4
CC(C)(C)C1CCC(=O)N(CCSc2ccccc2)CC1 (stereo not given)	1.4	1	-2	x	4.9	-20	4.3
COc1cccc(C2C(C(=O)c3cccs3)=C(O)C(=O)N2CCN2CCOCC2)c1OC (stereo not given)	x	-4	14	-2%	1.6	x	0.1
COC(=O)c1ccc(C2/C(=C(/O)c3ccc(Cl)cc3)C(=O)C(=O)N2C2CCS(=O)(=O)C2)cc1 (stereo not given)	-1.3	-2	x	0%	-1.2	0	1.7
CCOc1ccc(N(CC(=O)N2CCN(c3ccccc3OC)CC2)S(=O)(=O)c2ccc(F)cc2)cc1	-2.2	-7	48	4%	1.4	-10	4.4
CCOc1ccc(NS(=O)(=O)c2ccc(C(=O)NCC(c3ccc(OC)cc3)N3CCOCC3)cc2)cc1 (stereo not given)	0.7	-6	2	0%	2.8	-2	1.9
Cn1cnnc1SCC(=O)NNC(=O)COc1ccc(Br)cc1	-4.8	0	-16	-5%	u	-2	1.3
CCCN1C(=O)C(=O)c2cc(Cl)ccc21	-208	12	x	-11%	x	2	-45
O=C(CN1CCN(S(=O)(=O)c2ccc(F)cc2)CC1)Nc1ccc(Cl)c(C(F)(F)F)c1	-7.6	-1	-2	-2%	2.1	-1	0.8
CCOC(=O)c1c(CC(C)C)csc1N	3.3	0	-2	-5%	0.0	-1	2.1
CC(=O)c1ccc(NC(=S)NC(=O)/C=C/c2ccco2)cc1	0.4	-2	13	9%	-1.1	53	0.2
O=C(O)c1cccc(N/N=C/c2ccc(OC(F)(F)F)cc2)c1	1.7	3	-1	0%	1.7	4	0.1
CCN1C(=O)N[C@@H](c2cccs2)C(C(=O)OC)=C1C	3.5	-1	1	x	-0.8	-1	-0.3
CCCOc1ccc(/C=C2/C(=O)ON=C2C)cc1Cl	-0.2	10	-3	2%	4.0	22	0.4
CC(=O)c1c(C)[nH]c(C(=O)Nc2cccc(C)n2)c1C	9.4*	5	7	6%	1.6	-5	3.7
CC(c1ccon1)N(C)Cc1cn(Cc2ccccc2)nc1-c1ccc2c(c1)OCO2 (stereo not given)	-4.4	6	12	x	-1.2	-13	-3.3
COc1ccc(CN(C(=O)c2cc3ccccc3oc2=O)C2CCCCC2)cc1OC	-1.2	1	-5	-1%	2.0	-19	3.7
CCC(C(=O)Nc1c2c(nn1C(C)(C)C)CS(=O)(=O)C2)c1ccccc1 (stereo not given)	-0.4	-3	-1	x	1.3	-1	-3.1
CCCCc1[nH]c(=O)c(C#N)c2c1CCCC2	-4.2	-5	36	-3%	2.2	-3	-1.8
CC1Cc2cc(S(=O)(=O)N3CCCCC3)ccc2N1C(=O)C1CCC1 (stereo not given)	3.7	11	0	x	6.0	6	2.2
C=C(C)C1CC=C(C)/C(=N/Nc2ccccc2[N+](=O)[O-])C1 (stereo not given)	-2.3	0	-15	x	-5.5	9	4.0
C=CCN1C(=O)N/C(=C/c2ccccc2OCC(=O)Nc2ccc(F)cc2)C1=O	4.3	15	-13	3%	0.0	-3	-0.6
Cc1cc(C)n(/C(=C\N(C)C)C(=O)c2ccc(Cl)cc2)n1	1.0	4	6	-8%	-0.7	-5	3.4
CC(O)CC(C(=O)NNc1ccccc1)C(=O)NNc1ccccc1 (stereo not given)	2.0	-8	u	u	5.7	99*	0.9
O=C(CSc1nc2ccccc2s1)NNC(=O)Nc1ccc(Cl)c(Cl)c1	0.0	1	-9	25%	1.9	-12	1.0
C=CCNc1nc(C(=O)OCC(=O)Nc2cccc(SC)c2)cs1	x	3	x	-3%	x	x	1.9
COc1cccc(C2(O)CCN(C(=O)C3CC3)CC2)c1	-4.1	-3	-10	-6%	-3.7	-7	0.7
O=C(c1ccc2c3n(nc2c1)-c1ccccc1CO3)N1CCOCC1	1.9	3	3	-5%	-2.3	-6	1.0
O=C(Nc1nccs1)C1C2/C=C\CCCCC21 (stereo not given)	-2.5	0	-2	-4%	3.6	-5	2.4

Reformatted: entries from further up
mol | LANA-H2B inh | B2AR ag | Calb FLC | Vif A3G | RanGTP-Imp inh | ALR H2O2 inh | HNF4A DNA FP
O=C(CSc1nc2ccccc2s1)NNC(=O)Nc1ccc(Cl)c(Cl)c1 | 0.0 | 1 | -9 | 25% | 1.9 | -12 | 1.0
C=CCNc1nc(C(=O)OCC(=O)Nc2cccc(SC)c2)cs1 | x | 3 | x | -3% | x | x | 1.9
COc1cccc(C2(O)CCN(C(=O)C3CC3)CC2)c1 | -4.1 | -3 | -10 | -6% | -3.7 | -7 | 0.7
O=C(c1ccc2c3n(nc2c1)-c1ccccc1CO3)N1CCOCC1 | 1.9 | 3 | 3 | -5% | -2.3 | -6 | 1.0
O=C(Nc1nccs1)C1C2/C=C\CCCCC21 (stereo not given) | -2.5 | 0 | -2 | -4% | 3.6 | -5 | 2.4

(list continues)
SMILES	LANA-H2B inh	B2AR ag	Calb FLC	Vif A3G	RanGTP-Imp inh	ALR H2O2 inh	HNF4A DNA FP
O=[N+]([O-])c1ccc(N2CCCC2)cc1NC(c1ccccc1)c1ccccc1	0.0	-2	-1	22%	-2.0	2	2.0
CC(SC1=NCCN1S(C)(=O)=O)c1ccccc1 (stereo not given)	0.8	0	-3	1%	-2.0	1	1.7
C/C(=N\NC(=O)c1nnn(-c2nonc2N)c1CN1CCCCC1)c1ccccc1O	4.3	-23	4	x	2.9	x	0.5
COc1ccc(C(=O)O)cc1Nc1cc(C)nc2ncnn12	-2.4	-2	2	2%	-0.3	-6	2.3
COc1ccccc1N(CC(=O)Nc1ccc(S(=O)(=O)N2CCOCC2)cc1)S(C)(=O)=O	-2.5	0	9	x	5.5	11	-2.2
CCOc1ccc(N(CC(=O)NCCSCc2ccc(Cl)cc2)S(C)(=O)=O)cc1	1.8	0	0	-2%	1.7	0	-0.8
CN(CC(=O)Nc1ccccc1Cl)C(=O)COC(=O)Cc1c(F)cccc1Cl	-6.5	-5	-6	x	2.4	2	-3.0
Cc1cnc(SCc2cnc(C)nc2N)nc1	-3.5	-5	-11	27%	-1.8	2	-5.5
COc1cccc(OCc2cc(C(=O)N(C)C3CC(C)(C)NC(C)(C)C3)no2)c1	-0.2	-1	8	x	1.9	1	0.9
CCc1cccc(NS(=O)(=O)c2ccc3c(c2)n(C)c(=O)n3C)c1	4.8	0	5	x	0.3	-1	-3.5
COc1ccc(/C=C2\SC(=S)N(NC(=O)c3ccncc3)C2=O)cc1OC	5.7	x	-10	8%	-8.6	-15	x
CCOc1cc(/C=N/NC(N)=O)cc(Br)c1OCC(=O)Nc1ccccc1C	5.8	1	3	-1%	3.8	3	-1.7
COc1cccc(CCNC(=O)CCc2nnc(-c3ccc4c(c3)OCO4)o2)c1	-1.8	0	-2	x	0.9	2	4.5
CCc1cccc(C)c1NC(=O)CCOc1ccccc1	3.1	1	-4	-3%	-2.2	-11	7.1
COCc1ccc(CN2CCC(C(=O)Nc3cccc(-c4cccc(Cl)c4)c3)CC2)o1	-3.8	38	-22	x	1.0	-1	-1.6
COc1cc(C(C[N+](=O)[O-])c2c(-c3ccccc3)cc3ccccn23)cc(OC)c1OC (stereo not given)	-0.9	13	20	18%	0.3	7	3.9
O=C(O)/C=C/c1cccc(NC(=O)c2ccccc2)c1	2.8	5	-9	25%	-4.0	-4	-1.4
NC(=O)Cn1c(=O)n(CCCC(=O)NC2CCN(Cc3ccccc3)CC2)c(=O)c2ccccc21	-6.2	-9	-1	-3%	8.6	-12	-1.6
CSc1ccc(C2(O)Cc3cccc[n+]3C2c2ccccc2)cc1 (stereo not given)	1.1	-4	-12	-5%	-4.0	-13	-3.1
O=C(CSc1nnc(-c2ccccc2)n1Cc1ccco1)Nc1ccc(S(=O)(=O)N2CCCC2)cc1	-9.8	-10	1	28%	0.7	-5	5.3
CCN(Cc1nc2ccccc2c(=O)[nH]1)C(=O)COc1ccccc1-c1ccccc1	9.7	-4	x	-5%	x	-4	1.9
CCS(=O)(=O)N1CCCC(C(=O)NC2CCCC2)C1 (stereo not given)	-5.4	-3	-17	6%	-1.0	-5	-2.7
CCNc1oc(-c2cccc3ccccc23)nc1C#N	0.3	-7	-7	-2%	4.0	0	-0.2
CCc1ccc(N2C(=O)CC(N3CCN(c4ccccn4)CC3)C2=O)cc1 (stereo not given)	-1.5	4	0	0%	-3.0	-4	6.8
C=CCN=C1CC(C)(C)CC(=O)/C1=C(/O)CCC(=O)OC	-0.7	-5	-21	27%	1.6	-3	2.6
CCn1c(=O)c(-[n+]2ccccc2)c(O)c2ccccc21	1.2	-5	-2	u	-1.8	17	1.3
N#CC(C#N)=Cc1cc2ccccc2nc1N1CCOCC1	0.9	14	-1	x	u	95*	5.4
O=S(=O)(c1ccc(NC(=S)N/N=C/c2cccc(Oc3ccccc3)c2)cc1)N1CCOCC1	0.9	-10	2	-3%	0.3	-4	3.2
Cc1nnc(Oc2ccccc2)c2ccccc12	4.2	-8	-13	3%	2.4	-14	2.6
NC(=O)COC(=O)c1ccc2noc(-c3ccccc3)c2c1	-4.4	-1	-2	7%	3.4	x	6.2
CCCCc1ccc(-c2csc(/C(C#N)=C/c3ccco3)n2)cc1	6.7	12	2	u	8.4	4	5.4
COC(=O)c1c(C(=O)OC)c(-c2ccc(Cl)c(Cl)c2)n2c1CCC2	-3.3	-3	111*	-4%	0.0	-11	-2.7
